RN4220 kill – growth inhibition of S. aureus RN4220, primary screen, OD600 | 16 h | inhibition, % (no concentration beside the values) | 330,000 compounds, 0.33% hits;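 active = z-score of -3 or lower and OD600 up to 0.18 on both plates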;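 also: plate controls were untreated cells for no effect and reference antibiotic for full effect; stock transfer was 100 nL into about 80 µL; one replicate is shown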
Sa ugtP lethal – growth inhibition of ugtP-null S. aureus, primary screen, RN4220 ugtP deletion, OD600. 16 h; some inactives read as strong as hits. 330,000 compounds, 0.54% hits. growth inhibition, % (no concentration beside the values);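 active = z-score under -3 and OD600 up to 0.15 on both plates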;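 also: plate controls were untreated wells for no effect and antibiotic for full effect; wells of about 80 µL received 100 nL stock; the first replicate is given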
PrP 5UTR inh – inhibition of PrP 5' UTR reporter expression; cell-based PrP 5' UTR mRNA reporter, plate reader; inhibition, % (test concentration not listed); 340,000 compounds, 0.35% hits; AID 488862, 2010;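 active = every replicate at 50% or more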;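 also: 0 = median of the neutral control wells; tested in H4 reporter cells; numbers are from one replicate; inactives centre near -14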
Mtb hypoxia inh – PubChem AID 1159583; M. tuberculosis hypoxia-regulated fluorescent reporter, fluorescence; fluorescence inhibition, % (test concentration not listed); 300,000 compounds, 0.1% hits;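 active = 35 to 45% if threefold the growth effect, above 45% if 1.5-fold the growth effect; inactive = the rest, general growth blockers included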;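 also: wells of about 50 µL received 100 nL stock; 0% = vehicle wells and 100% = reference inhibitor wells; whole bacteria with a GFP reporter of the hypoxia response; strong numbers were not always called active; many hits fall short of the cut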
BJeLR lethal – MLPCN primary cell-based screen for lethality selective to Ras in HRASV12 cells. 300,000 compounds, 0.17% hits. BJeLR (HRASV12) viability, CellTiter-Glo ATP luminescence, 48 h; reference of the scale not given here. inhibition, % (concentration not given with the values);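 active = replicate mean above 50%; inconclusive = above 50% but judged a plate artefact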;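 also: 50 nL library stock added to about 25 µL; numbers are from one replicate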
Bead autofluor – counter-screen for toxin protease inhibitors: compound fluorescence. fluorescence intensity (concentration not given with the values). AID 624483. compound autofluorescence counterscreen, microsphere flow cytometry; active compounds read high. 360,000 compounds, 3.1% hits;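 active = at least 3 SD above the mean of all compounds, about 16000 in these data; inconclusive = too few beads counted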;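 also: 100 nL of 1 mM stock went into each well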
Mtb hypoxia inh growth – also measured in Mtb hypoxia inh; calls as there; growth inhibition, %; measured here: M. tuberculosis growth (absorbance);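 0% = vehicle and 100% = reference antibiotic; read after six days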
Active calls of the source: *; ? = inconclusive; / = not tested or not shown; & = joins results of further samples.

SMILES | RN4220 kill | Sa ugtP lethal | PrP 5UTR inh | Mtb hypoxia inh | Mtb hypoxia inh growth | BJeLR lethal | Bead autofluor
Cc1cccc(C)c1OCC(=O)N/N=C/C=C/c1ccco1 | / | / | -27 | / | / | -4 | 5492
Cc1ccc(NC(=O)CSc2nc3nc(C)c(Br)cc3[nH]2)cc1F | 1.8 | -11 | -22 | -5 | -9 | 7 | 5095
CN1/C(=C\C=C2/SC(=S)NC2=O)C(C)(C)c2ccccc21 | 4.3 | -8 | -32 | 0 | 3 | 15 | 5267
COC(=O)c1sccc1NC(=O)Cc1ccc(Br)cc1 | 0.0 | 14 | -13 | -4 | 7 | 4 | 10241
CCCCOC(=O)CSc1nnc(-c2cc(OC)c(OC)c(OC)c2)o1 | 9.9 | 22 | -5 | -2 | 2 | 5 | ?
CN(C)c1ccc(/C=C/C(=O)c2ccccc2O)cc1 | 1.6 | 2 | -79 | 4 | 10 | -9 | 4378
Cn1c(=O)[nH]c(=O)c2c1nc(N1CCCC1)n2CCCSc1nnnn1-c1ccccc1 | 5.1 | -5 | -7 | 2 | 9 | -7 | 2495
Cn1c(=O)c2c(SCC(=O)NC3CCCC3)nc(CC(C)(C)C)nc2n(C)c1=O | -0.7 | -4 | -3 | 10 | 17 | 3 | 6207
O=C(Nc1ccc(Br)cn1)c1ccc(Br)s1 | -4.5 | 18 | -82 | 10 | -3 | 7 | 3725
COc1ccc(N2CC(C(=O)N3CCN(S(=O)(=O)c4ccc(F)c(F)c4)CC3)CC2=O)c(OC)c1 (centres undefined) | 7.5 | 6 | -15 | -5 | 3 | / | 3337
COc1ccccc1CN1C(=O)C2Cc3c([nH]c4ccccc34)C(C)(C)N2C1=O (centres undefined) | -4.9&-2.9 | -5&-26 | / | 3&0 | 4&4 | / | /
O=C(Cc1ccc(Br)cc1)Nc1ccc(Cl)cc1 | -1.1 | -2 | -24 | 7 | 15 | 8 | 4754
COc1ccccc1C(=O)Nc1ccc(S(=O)(=O)N2CCc3ccccc32)cc1 | 6.1 | -6 | -29 | 3 | 8 | -1 | 4678
O=C(N/N=C/c1cc([N+](=O)[O-])ccc1O)c1ccncc1 | / | / | -48 | / | / | 6 | 5726
CN(CC(=O)Nc1cccnc1)S(=O)(=O)c1ccccc1 | 2.8 | 1 | -19 | 0 | 5 | 15 | 14740

Continued (3 carried over from the part before).
SMILES | RN4220 kill | Sa ugtP lethal | PrP 5UTR inh | Mtb hypoxia inh | Mtb hypoxia inh growth | BJeLR lethal | Bead autofluor
COc1ccccc1C(=O)Nc1ccc(S(=O)(=O)N2CCc3ccccc32)cc1 | 6.1 | -6 | -29 | 3 | 8 | -1 | 4678
O=C(N/N=C/c1cc([N+](=O)[O-])ccc1O)c1ccncc1 | / | / | -48 | / | / | 6 | 5726
CN(CC(=O)Nc1cccnc1)S(=O)(=O)c1ccccc1 | 2.8 | 1 | -19 | 0 | 5 | 15 | 14740
CC(=O)c1sc(NC(=O)C=C(C)C)nc1C | 4.3 | 8 | -14 | 7 | 11 | 3 | 17371*
O=C(CCC(=O)OCC(F)(F)C(F)F)NCc1ccccc1 | -5.5 | -11 | -9 | -17 | 5 | 5 | 5411
CCn1nc(NC(=O)COC)c2cc3cc(C)ccc3nc21 | 1.8 | 4 | -3 | 14 | -5 | -16 | 3494
Cc1ccc(N(Cc2ccc([N+](=O)[O-])cc2)C(=O)c2ccco2)cc1C | -2.9 | 0 | 0 | 5 | 2 | 8 | 7518
COC(=O)c1ccc2nc(NC(=O)C(C)C)sc2c1 | 4.3 | -3 | -81 | 17 | 10 | -6 | 1991
CCc1ccc(NS(=O)(=O)c2ccc3c(c2)oc(=O)n3C)cc1 | -0.8 | 10 | -15 | 2 | -3 | 5 | 3028
Cc1ccc(N(CC(=O)NN=C2CCN(C)CC2)S(=O)(=O)c2ccccc2)c(C)c1 | 1.3 | 3 | -15 | 7 | 2 | -9 | 2572
O=C(Nc1cc(F)cc(F)c1)c1ccc(NCCc2ccccc2)c([N+](=O)[O-])c1 | / | / | -4 | / | / | -5 | 10118
COc1ccccc1C(=O)Oc1ccc2c(c1)O/C(=C\c1ccncc1)C2=O | 7.3 | 18 | -12 | 19 | 11 | 1 | 2024
Cc1nc2c(ccc3nc(NC(=O)c4ccc(S(=O)(=O)N(C)C)cc4)sc32)s1 | -2.6 | -8 | 0 | -1 | 8 | -12 | 5240
CCOC(=O)c1[nH]c2c(c1-c1ccc(OC)cc1)C(=O)CC(c1ccc(OC)c(OC)c1)C2 (centres undefined) | -2.2 | 11 | -11 | / | / | -18 | 5994
Fc1cccc(Cl)c1CSC1=NCCS1 | 1.7 | 8 | -11 | -13 | -5 | 4 | 3575
C[C@@H]1CC=C[C@H]2[C@H]1C(=O)N(Cc1ccccc1)[C@H]2c1ccc(-c2ccc(N(C)C)cc2)cc1F | / | / | -12 | / | / | 12 | 3812
CCCNC(=O)NC(=O)COc1c(F)c(F)cc(F)c1F | 5.5 | -1 | -25 | / | / | -7 | 3798
COCCCn1c(SCC(=O)Nc2ccc(C)cc2)nc2ccccc2c1=O | 7.6 | -8 | -2 | 6 | 0 | 3 | 2514
Cc1ccc(CNC(=O)CCS(=O)(=O)c2ccc3c(c2)oc(=O)n3C)cc1 | 0.2 | -1 | 4 | 0 | 13 | -6 | 5629
Cc1c(C(=O)OCC(=O)N2C(C)CCCC2C)oc2ccccc12 (centres undefined) | 3.4 | -1 | -48 | 4 | 15 | 0 | 5454
Cc1cc(N/C=C/C(=O)c2ccccc2)ccc1Br | -0.8 | 1 | -71 | 7 | -7 | -4 | 3834
CCN(CC)S(=O)(=O)c1cccc(NC(=O)COC(=O)CCC(=O)c2cccs2)c1 | 4.0 | 5 | -25 | 0 | -3 | -7 | 4490
O=C1C(Cc2ccccc2)Nc2ncnc(N3CCc4ccccc4C3)c2N1Cc1ccc(Cl)cc1 (centres undefined) | / | / | -5 | / | / | 11 | 4089
CC(=O)c1ccc([N+](=O)[O-])c(CS(=O)(=O)c2ccccc2)c1 | 3.4 | 5 | -1 | -6 | -1 | -3 | 3689
O=[N+]([O-])c1ncccc1OCc1ccc(Cl)c(Cl)c1 | 2.7 | 15 | -47 | 6 | 11 | 2 | 5096
Cc1ccc(CC(NC(=O)c2ccccc2)C(=O)NC(CC(C)C)C(=O)O)cc1 (centres undefined) | 6.5 | 3 | 7 | 4 | 0 | 6 | 5008
COCCNC(=O)CCCn1c(=O)c2cc(OC)c(OC)cc2n(CC(=O)Nc2ccc(F)cc2)c1=O | 1.5 | 1 | -24 | 2 | -4 | -9 | 5559
O=[N+]([O-])c1cccc(-c2ccc(CN3CCN(c4ccccc4)CC3)o2)c1 | -8.9 | 21 | -17 | 7 | 10 | 0 | 3907
COc1cc(OC)c(OC)cc1C=NNC(=O)c1ccc(=O)n(C)c1 | -1.7 | 0 | / | 3 | 8 | / | /
Cc1ccc2nc(Nc3ccc(Cl)cc3)c3nncn3c2c1 | -6.6 | 0 | 22 | -1 | -9 | -6 | 3262
O=c1cc(-c2ccccc2)c2cc(Cl)ccc2[nH]1 | 1.7 | -11 | -11 | 0 | -1 | -1 | 3516
COc1cc(C=NN(C)C)cc(Br)c1O | 4.4 | 10 | / | 4 | -1 | / | /
CC1CCN(c2nncc3ccccc23)CC1 | 5.3 | 1 | -15 | / | / | 0 | 5600
CC1CCCN(C(C(=O)NC2CCCCC2)c2cc3c(cc2[N+](=O)[O-])OCO3)C1 (centres undefined) | 1.9 | -2 | -10 | 19 | 10 | -18 | 2055
O=[N+]([O-])c1ccc(SCCc2ccccn2)cc1 | 2.4 | 1 | -103 | 4 | 6 | -1 | 4923
CC(NC(=O)c1ccc(C23CC4CC(CC(C4)C2)C3)cc1)C(=O)O (centres undefined) | 13 | 16 | -7 | 3 | 2 | -3 | 1942
N#Cc1ccc(NC(=O)Cn2cnc(S(=O)(=O)N3CCOCC3)c2)cc1 | 0.1 | -4 | -20 | -5 | 1 | 0 | 5656
Cc1ccnn1Cc1cc(C(=O)O)c2ccccc2n1 | -3.3 | -1 | -28 | -5 | -2 | 8 | 4266

Structural class: the compounds so far containing an aryl methoxy group.
SMILES | RN4220 kill | Sa ugtP lethal | PrP 5UTR inh | Mtb hypoxia inh | Mtb hypoxia inh growth | BJeLR lethal | Bead autofluor
CCCCOC(=O)CSc1nnc(-c2cc(OC)c(OC)c(OC)c2)o1 | 9.9 | 22 | -5 | -2 | 2 | 5 | ?
COc1ccc(N2CC(C(=O)N3CCN(S(=O)(=O)c4ccc(F)c(F)c4)CC3)CC2=O)c(OC)c1 (centres undefined) | 7.5 | 6 | -15 | -5 | 3 | / | 3337
COc1ccccc1CN1C(=O)C2Cc3c([nH]c4ccccc34)C(C)(C)N2C1=O (centres undefined) | -4.9&-2.9 | -5&-26 | / | 3&0 | 4&4 | / | /
COc1ccccc1C(=O)Nc1ccc(S(=O)(=O)N2CCc3ccccc32)cc1 | 6.1 | -6 | -29 | 3 | 8 | -1 | 4678
COc1ccccc1C(=O)Oc1ccc2c(c1)O/C(=C\c1ccncc1)C2=O | 7.3 | 18 | -12 | 19 | 11 | 1 | 2024
CCOC(=O)c1[nH]c2c(c1-c1ccc(OC)cc1)C(=O)CC(c1ccc(OC)c(OC)c1)C2 (centres undefined) | -2.2 | 11 | -11 | / | / | -18 | 5994
COCCNC(=O)CCCn1c(=O)c2cc(OC)c(OC)cc2n(CC(=O)Nc2ccc(F)cc2)c1=O | 1.5 | 1 | -24 | 2 | -4 | -9 | 5559
COc1cc(OC)c(OC)cc1C=NNC(=O)c1ccc(=O)n(C)c1 | -1.7 | 0 | / | 3 | 8 | / | /
COc1cc(C=NN(C)C)cc(Br)c1O | 4.4 | 10 | / | 4 | -1 | / | /

This is a random part of the collection (roughly 4% active in at least one column).
